Screening data deposited in PubChem BioAssay by several laboratories.
BJeLR lethal: MLPCN primary cell-based screen for lethality selective to Ras in HRASV12 cells | BJeLR (HRASV12) viability, CellTiter-Glo ATP luminescence, 48 h; reference of the scale not given here | inhibition, % (no concentration beside the values) | hit rate 0.17% among 300,000 | AID 1554, 2009;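 active = replicate mean above 50%; inconclusive = above 50% but judged a plate artefact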;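 note: 50 nL library stock added to about 25 µL; numbers are from one replicate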
ugtP null kill: growth inhibition of ugtP-null S. aureus, primary screen, RN4220 ugtP deletion, OD600; 16 h; some inactives read as strong as hits; growth inhibition, % (no concentration beside the values); hit rate 0.54% among 330,000;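 active = z-score under -3 and OD600 up to 0.15 on both plates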;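 note: plate controls were untreated wells for no effect and antibiotic for full effect; wells of about 80 µL received 100 nL stock; the first replicate is given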
Sa RN4220 lethal: growth inhibition of S. aureus RN4220, primary screen, OD600. inhibition, % (test concentration not listed). 16 h. hit rate 0.33% among 330,000;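 active = z-score of -3 or lower and OD600 up to 0.18 on both plates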;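 note: plate controls were untreated cells for no effect and reference antibiotic for full effect; stock transfer was 100 nL into about 80 µL; one replicate is shown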
Bead autofluor: counter-screen for toxin protease inhibitors: compound fluorescence. hit rate 3.1% among 360,000. compound autofluorescence counterscreen, microsphere flow cytometry; active compounds read high. fluorescence intensity (no concentration beside the values);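 active = at least 3 SD above the mean of all compounds, about 16000 in these data; inconclusive = too few beads counted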;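 note: 100 nL of 1 mM stock went into each well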
PrP 5UTR inh: inhibition of PrP 5' UTR reporter expression; cell-based PrP 5' UTR mRNA reporter, plate reader; inhibition, % (concentration not given with the values); hit rate 0.35% among 340,000; AID 488862, 2010;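 active = every replicate at 50% or more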;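 note: 0 = median of the neutral control wells; tested in H4 reporter cells; numbers are from one replicate; inactives centre near -14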
Mtb hypoxia rep: PubChem AID 1159583; hit rate 0.1% among 300,000; M. tuberculosis hypoxia-regulated fluorescent reporter, fluorescence; fluorescence inhibition, % (no concentration beside the values);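 active = 35 to 45% if threefold the growth effect, above 45% if 1.5-fold the growth effect; inactive = the rest, general growth blockers included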;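 note: wells of about 50 µL received 100 nL stock; 0% = vehicle wells and 100% = reference inhibitor wells; whole bacteria with a GFP reporter of the hypoxia response; strong numbers were not always called active; many hits fall short of the cut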
Mtb hypoxia rep growth: second read-out of Mtb hypoxia rep, no call of its own (marks repeat the call); growth inhibition, %; measured here: M. tuberculosis growth (absorbance);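 0% = vehicle and 100% = reference antibiotic; read after six days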
An asterisk follows results filed as active; ? = inconclusive; nt = not tested or not shown; & = joins results of further samples.

SMILES	BJeLR lethal	ugtP null kill	Sa RN4220 lethal	Bead autofluor	PrP 5UTR inh	Mtb hypoxia rep	Mtb hypoxia rep growth
O=C1c2ccccc2C2=Nc3ccccc3SC(c3ccccc3F)C12 (configuration not stated)	-4	25	24	6487	-2	8	0
Nc1cc(=O)[nH]c(=O)n1-c1ccc(Cl)cc1	4	1	2.5	5936	-29	-1	7
COc1cc(/C=C2\CCC(C3CCCC3)C2=O)cc(OC)c1OC (configuration not stated)	13	10	4.7	3103	-26	7	8
O=C1CCCc2c1cc(-c1ccccc1)n2-c1ccc(O)cc1	-3	4	-1.2	2007	-12	-10	-5
CCOC(=O)Cc1c(C)nc2c(C#N)c[nH]n2c1=O	18	-4	-0.5	23050*	-1	-4	15
Cn1cc(Br)c(-c2cccc(NC(=O)CCCC(=O)O)c2)n1	7	2	0.6	4364	-13	6	10
Cc1ccc(O)c(CNn2cnnc2)c1	-15	0	3.6	10291	-4	6	1
Cc1cc(C)nc(-n2nc(C)c(Br)c2Nc2ccc(Br)cc2)n1	-6	-6	4.4	?	-19	3	3
CC(=O)c1ccc(N2CCN(S(=O)(=O)c3ccc4c(c3)CC(C)N4C(C)=O)CC2)cc1 (configuration not stated)	4	nt	nt	6416	11	nt	nt
C=CCn1c2[n+](c3ccccc3c1=O)CCCCC2	3	6	2.8	3262	41	5	5
Cc1cc(C)c([N+](=O)[O-])cc1NC(=O)CCS(=O)(=O)c1ccccc1	4	1	1.3	3312	2	-1	8
Oc1oc(-c2ccco2)nc1C=Nc1cccc(Cl)c1	-4	0	3.4	8554	nt	10	10
S=C(NCCc1ccccn1)Nc1ccccc1	-13	5	0.0	4540	-35	4	12
COc1ccccc1-n1cnc2cc(NS(=O)(=O)c3ccccc3)ccc21	-6	-4	4.1	3551	-8	-13	3
COc1cc(OC)cc(C(=O)Nc2ccc(N(C)C)c3ccccc23)c1	-8	-3	-1.4	4372	-24	13	18
Cc1cccc2cc(C(c3nnnn3CC3CCCO3)N3CCOCC3)c(=O)[nH]c12 (configuration not stated)	-2	-4	4.9	18150*	-9	6	9
CSc1ncccc1C(=O)NCC1CCCCC1	5	8	5.5	4274	-49	16	6
CCOc1ccc(CCNc2cc(C)nc3ncnn23)cc1OCC	-5	-12	1.2	5965	-32	nt	nt
CCCSc1nnc(Cc2cc(=O)[nH]c(=O)[nH]2)n1-c1cc(C)ccc1C	-4	-2	-0.2	4226	-21	-5	-2
Fc1ccc(CN2CCCCCCC2)cc1	3	-3	-2.4	10940	-7	-2	4
CCOC(=O)c1c(NC(=O)COC(=O)CCOc2ccccc2C)sc(C(=O)NC)c1C	3	-1	2.8	?	-9	1	-2
COc1ccc(S(=O)(=O)N2CCN(c3ncccn3)CC2)cc1	7	2	2.7	6436	-16	0	6
Cc1sc(NC(=S)NC(=O)c2ccccc2)c(C#N)c1C	12	44	12	4166	-14	25	3
CCOC(=O)CSc1nncc2ccc(OC)c(OC)c12	7	-2	0.7	11094	-6	8	12
CN(c1ccc(Cl)cc1)S(=O)(=O)c1nnc(NC(=O)c2ccco2)s1	4	7	14	5780	-24	11	9
COc1ccc(O)c(C=NN=Cc2cccc([N+](=O)[O-])c2)c1	nt	-1	2.8	nt	nt	0	1
NS(=O)(=O)c1ccc(NC(=O)C2Cc3ccccc3C(=O)O2)cc1 (configuration not stated)	-4	-5	-0.8	2007	-12	4	5
Cc1nc(=O)c(-c2ccccc2)c(C)n1-c1ccc(O)cc1	-6	3	3.4	8341	-26	5	2
Cc1[nH]c2ccccc2c1C(=O)CSC(=S)N1CCOCC1	-4	-7	3.4	3593	-35	20	11
COc1cccc(NC(=O)Nc2cccc(C(=O)O)c2)c1	-2	5	2.2	5452	62*	3	6
CCN(CC)N=Nc1[nH]nc2nc(C)cc(C)c12	-10	45	13	3100	-8	12	3
CC(CCc1ccccc1)NC(=O)COC(=O)c1cccs1 (configuration not stated)	-14	1	7.2	4279	-13	12	3
O=C(Cc1cccs1)Nc1nnc(-c2ccccc2)s1	-4	-2	0.5	4355	-36	1	-4
CCOC(=O)c1c(C)c(C(=O)N2CCN(C(=O)c3ccco3)CC2)c(C)n1C	4	10	5.5	7976	-25	0	0
O=C(COc1cccc2c1CCNC2=O)Nc1ccc(F)cc1	3	2	4.7	5248	-14	12	2
CC(C)Oc1ccccc1C1NC(=O)CCC1[N+](=O)[O-] (configuration not stated)	3	1	3.7	3032	8	4	-10
O=C1C=C(NCc2ccc(Cl)cc2)CCC1	-3	0	7.3	9355	-15	-1	1
COC(=O)C1=C(c2cccc(OC)c2OC)CC2CCC1N2C(=O)N1CCC(O)CC1 (configuration not stated)	nt	-5	4.7	nt	nt	6	9
Cc1cc(/C=N/O)c(C)n1-c1cccc(Cl)c1	-3	nt	nt	2884	-17	nt	nt
O=C1CCCc2c1oc1c2CCCC1	nt	-3	3.5	2808	-25	3	6
O=[N+]([O-])c1ccc(N=NNc2ccc([N+](=O)[O-])cc2)cc1	nt	5	2.5	3457	-73	12	10
Cc1ccc(CNS(=O)(=O)CCNC(=O)c2ccc3c(c2)OCO3)cc1	-3	11	5.2	?	-14	11	2
c1cnc2nc(-c3ccc4c(c3)OCO4)cn2c1	4	4	-0.3	5533	-75	14	12
CCCCCC[N+](C)(C)CCSSCC[N+](C)(C)CCCCCC	3	-2	-2.2	6637	-17	8	5
Cc1ccc(N2CCCCn3c2nc2c3c(=O)n(CC(=O)O)c(=O)n2C)cc1	-7	-1	-0.4	2228	58*	nt	nt
O=C(OCCN1CCCC1)C1(c2ccccc2)CCCC1	0	21	20	3204	-14&-27	5	-1
COC(=O)c1nnn(CC(=O)NC(=O)Nc2ccc(F)cc2)c1C(=O)OC	6	nt	nt	2607	-5	nt	nt
CNc1c(NS(=O)(=O)c2cc(OC)ccc2OC)c(=O)oc2ccccc12	-4	-1	0.5	3030	-4	3	0
Cc1ccccc1N(CC(=O)NC(C)(C)C)C(=O)c1ccc(-c2ccccc2)[nH]1	6	-5	1.2	nt	nt	11	5
Cn1ccnc1SCC(=O)c1c[nH]c2ccccc12	7	-1	5.6	5123	-20	3	11

Single records, from the list above:
Listed for Cc1nc(=O)c(-c2ccccc2)c(C)n1-c1ccc(O)cc1 : BJeLR lethal = -6; ugtP null kill = 3; Sa RN4220 lethal = 3.4; Bead autofluor = 8341; PrP 5UTR inh = -26; Mtb hypoxia rep = 5; Mtb hypoxia rep growth = 2
Listed for Cc1ccc(N2CCCCn3c2nc2c3c(=O)n(CC(=O)O)c(=O)n2C)cc1 : BJeLR lethal = -7; ugtP null kill = -1; Sa RN4220 lethal = -0.4; Bead autofluor = 2228; PrP 5UTR inh = 58*; Mtb hypoxia rep = nt; Mtb hypoxia rep growth = nt

Following part:
SMILES	BJeLR lethal	ugtP null kill	Sa RN4220 lethal	Bead autofluor	PrP 5UTR inh	Mtb hypoxia rep	Mtb hypoxia rep growth
CCN(C(=O)CSc1nnnn1C)c1c(N)n(Cc2ccccc2)c(=O)[nH]c1=O	11	0	4.4	5026	-27	9	3
CN(Cc1ccccc1)S(=O)(=O)c1ccc(Cl)nc1	-3	12	6.2	2924	-28	15	5
Cc1ccc(-c2csc3ncnc(SCC(=O)Nc4nnc(C)s4)c23)cc1	1	7	2.1	21425*	-13	4	4
O=C1C2CC=C(Cl)CC2C(=O)N1CCc1c[nH]c2ccccc12 (configuration not stated)	11	-5	0.0	4293	-17	-2	3
Cc1cc(NC(=O)CSc2cn(CC(=O)N(C(C)C)C(C)C)c3ccccc23)no1	1	1	-1.2	5237	-5	5	1
Cc1cccc(NC(=S)NCc2ccc(F)cc2)c1C	-9	-2	1.3	3290	-10	2	-5
COc1ccc(NC(=O)c2cc3c(=O)n4ccccc4nc3n2C)cc1OC	14	5	14	3480	-9	1	12
O=C(Nc1cc(Cl)ccc1Cl)c1cc(-c2ccco2)on1	-2	2	-0.4	3786	-24	-2	5
C=CCOCC(O)Cn1c(N2CCCC2)nc2c1c(=O)[nH]c(=O)n2C (configuration not stated)	11	5	1.8	3786	19	-5	2
Cn1ncc(N2CCN(C(=O)c3ccc(Cl)cc3)CC2)c(Cl)c1=O	-7	15	3.6	4073	-1	8	-1
O=C(Nc1cccc(F)c1)c1ccc(-c2ccccc2Cl)o1	4	3	7.4	3920	-34	2	3
CC(=O)N(C1=NCCCS1)c1ccc(Cl)cc1	1	nt	nt	4318	-41	nt	nt
CCN(C[C@H]1N[C@@](Cc2ccccc2)(C(=O)OC)[C@H]2C(=O)N(Cc3ccccc3)C(=O)[C@@H]12)C(C)=O	nt	-3	3.1	2962	-4	-11	-3
N=C1C(c2nc(-c3ccc(F)cc3)cs2)=C(O)CN1Cc1ccc(Cl)cc1	-1	-9	-9.4	6306	0	2	8
O=C(CC1Sc2ccccc2NC1=O)NNc1cc(Cl)ccc1Cl (configuration not stated)	nt	-1	4.2	3888	-5	22	10
Cc1c(N=Cc2c(O)n(Cc3ccco3)c(=O)[nH]c2=O)c(=O)n(-c2ccccc2)n1C	5	-8	1.8	3300	-15	-7	8
COC(=O)c1ccc(Cn2nc(C)c(Cl)c2C)o1	-5	0	0.5	2733	-7	-1	6
CCOc1ccc(NC(=O)CN(C)C(=O)c2ccc(COc3ccccc3)cc2)cc1OCC	nt	5	-6.0	4421	-7	12	11
Cc1cccc(NC(=O)CCC(=O)OCC(=O)c2ccc(Oc3ccc([N+](=O)[O-])cc3)cc2)c1	-5	10	2.0	2065	-10	-15	7
COc1ccc(Cn2c(SCC(=O)NCc3ccco3)nc3ccsc3c2=O)cc1	-10	0	2.0	11289	1	4	5
Cc1ccc(CN2C(=O)C[C@@H](NC(=O)OCC3c4ccccc4-c4ccccc43)C/C=C\C2c2ccc(C)cc2)cc1 (some centres not stated)	nt	-6	0.9	3657	-4	-8	10
CN1CCN(/N=C/c2cccc(Cl)c2Cl)CC1	4	nt	nt	4038	-38	nt	nt
CCOC(=O)CSc1nc2ccccc2c(=O)n1CCCCCC(=O)NCc1ccco1	0	-6	1.6	7878	-34	-4	5
O=C(CN1C(=O)/C(=C2/SC(=S)N(CCS(=O)(=O)O)C2=O)c2ccccc21)Nc1cccc(Br)c1	nt	7	5.9	3723	-7	16	7
O=c1cc(CN2CCN(C/C=C/c3ccccc3)CC2)c2cc(O)ccc2o1	5	-7	-1.9	6535	-16	-12	-2
O=c1nc(NN=Cc2ccco2)cn[nH]1	nt	6	2.4	nt	nt	11	-5
Cc1nn(C)cc1NC(=O)Cn1nc(C(F)(F)F)cc1C1CC1	-4	3	2.9	2028	-10	-4	0
COC(=O)c1c(N2C(=O)[C@H]3[C@@H](C2=O)[C@]2(C(=O)Nc4c(C)cc(C)cc42)N2CCC[C@@H]32)sc(C)c1C	4	-1	7.0	4697	-71	6	4
COc1cccc(Nc2nc(Nc3ccc(Cl)c(C(=O)O)c3)nc(C)c2[N+](=O)[O-])c1	nt	-11	2.9	4697	-33	8	3
CCn1nccc1C(=O)Nc1nccs1	nt	2	3.0	4462	-15	4	8
O=C(Nc1ccc(Oc2cccc3ccccc23)cc1)c1ccco1	-12	-30	-13	2775	-7	nt	nt
O=C(NCC1CCCN1S(=O)(=O)c1cccs1)C(=O)Nc1cccc(F)c1 (configuration not stated)	0	7	2.2	?	-18	8	5
O=C(O)CC1S/C(=N\N=C2\C(=O)Nc3ccccc32)N(c2ccc(O)cc2)C1=O (configuration not stated)	7	nt	nt	4000	-16	nt	nt
CCc1cc(=O)oc2cc(OCC=C(C)C)ccc12	7	-2	7.1	2019	-14	8	9
Cc1ccccc1C(=O)N1CCc2cc(-c3csc(NC(=O)CN4CCCC4)n3)ccc21	-1	nt	nt	3348	-15	nt	nt
COc1ccc(Nc2ccc(N3C(=O)CCCC3=O)cc2[N+](=O)[O-])c(OC)c1	3	11	1.8	2449	-14	17	8
Nc1cc(Nc2ccccc2)c2nonc2c1[N+](=O)[O-]	2	-1	4.7	3451	-11	-17	4
Cc1ccc(-c2nc(CS(=O)(=O)CC(=O)NCCCN(Cc3ccccc3)C(C)C)c(C)o2)cc1	9	8	-0.7	5291	-12	2	-3
COc1ccc(CCNCC(O)Cn2c3ccccc3c3ccccc32)cc1OC (configuration not stated)	7	-7	-6.8	3436	-5	-4	9

Compounds as they come. About 4% of those tested had a hit in this group.
